Assay outcomes: PubChem, several laboratories
Arbovirus anti: blocks arbovirus infection; arbovirus infection cell-based antiviral screen; inhibition, % at 10 µM; 200,000 compounds, 0.37% hits; AID 1251;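 active = inhibition from about 30%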;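 also: bluetongue infection of BSR cells; cell survival read as ATP light after 72 h; 0% = infected wells without compound and 100% = uninfected wells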
Mtb growth: M. tuberculosis H37Rv growth inhibitors, H37Rv strain (AID 1626); M. tuberculosis H37Rv growth inhibition; higher % means a stronger effect; inhibition, % at 10 µM; hits with a dose series show IC50 in µM; 220,000 compounds, 0.95% hits;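 active = confirmed in a dose series; inconclusive = inhibition above 80% but not taken into the dose series; inactive = below 80% or under 30% at every dose of the series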;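 also: bacteria incubated seven days before Alamar blue readout; 0% = bacteria only wells and 100% = bacteria with antibiotic wells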
Mtb bLac sens: beta-lactam sensitization of Mtb H37Rv; AID 434955; inhibition, % at 25 µM; M. tuberculosis H37Rv growth with meropenem, percent inhibition; hits of this screen are not shown here; 330,000 compounds, 0.27% hits;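 active = about 74% or more and at least 40 points above the plate without the antibiotic, then above 30% in a dose series; inconclusive = first-round hits that could not be retested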;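 also: growth measured after seven days incubation then overnight dye step; 0% = bacteria only wells and 100% = bacteria with antibiotic; twin plates without the antibiotic show which effects depend on it; some results filed as inactive read as strong as hits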
RecA splice inh: blocks M. tuberculosis RecA intein splicing; P9WHJ3; cell-free RecA intein splicing, fluorescence; inhibition, %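 (about 9 µM by stock and volumes)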; 290,000 compounds, 0.75% hits; AID 2221; in the data active = inhibition above about 30%; inconclusive = no clear call, values can overlap the other calls;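 also: 0% = vehicle wells and 100% = reference inhibitor control wells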
Target sequence (P9WHJ3 whole entry, looked up, canonical isoform): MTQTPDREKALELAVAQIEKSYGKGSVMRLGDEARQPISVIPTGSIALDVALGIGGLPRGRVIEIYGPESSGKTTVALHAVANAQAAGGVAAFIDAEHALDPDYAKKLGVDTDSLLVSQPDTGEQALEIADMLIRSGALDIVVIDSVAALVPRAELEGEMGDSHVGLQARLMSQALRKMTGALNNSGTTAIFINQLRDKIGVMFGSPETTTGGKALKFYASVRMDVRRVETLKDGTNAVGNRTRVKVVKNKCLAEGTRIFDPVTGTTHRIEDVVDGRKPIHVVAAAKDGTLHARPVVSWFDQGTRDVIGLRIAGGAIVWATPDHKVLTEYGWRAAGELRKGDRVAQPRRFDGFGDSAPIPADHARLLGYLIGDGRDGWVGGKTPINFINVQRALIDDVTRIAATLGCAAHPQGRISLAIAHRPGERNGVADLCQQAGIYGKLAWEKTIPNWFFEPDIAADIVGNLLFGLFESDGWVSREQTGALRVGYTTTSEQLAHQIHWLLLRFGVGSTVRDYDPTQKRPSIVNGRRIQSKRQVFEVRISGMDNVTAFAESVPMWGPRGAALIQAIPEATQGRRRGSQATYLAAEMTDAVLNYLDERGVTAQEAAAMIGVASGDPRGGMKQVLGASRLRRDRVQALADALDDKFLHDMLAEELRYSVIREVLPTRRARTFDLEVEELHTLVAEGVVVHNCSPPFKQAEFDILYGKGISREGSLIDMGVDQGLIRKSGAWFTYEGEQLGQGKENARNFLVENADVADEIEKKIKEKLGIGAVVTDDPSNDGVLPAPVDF
YopH inh: blocks Yersinia enterocolitica YopH tyrosine phosphatase; inhibition, %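 (about 10 µM by stock and volumes)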; fluorescence Ex485/Em525; 140,000 compounds, 0.16% hits;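 active = inhibition of 50% or more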;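 also: controls were vehicle for no effect and minimum signal wells for full effect; inactives centre near -20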
Arbovirus anti repeat: further read-out of Arbovirus anti, marked with its call; inhibition, %; measured here: 10K subset replicate screen; many hits read low in the repeat;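 first of two repeat runs on a subset; 0% = infected and 100% = uninfected wells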
The depositor's hits bear a star; ? = inconclusive; . = not tested or not shown. These rows are one share of the data, so the mix of outcomes need not match the whole.

SMILES	Arbovirus anti	Mtb growth	Mtb bLac sens	RecA splice inh	YopH inh	others
CCN(CC)C(=O)/C(=C\c1ccc2c(c1)OCO2)NC(=O)c1ccc(Br)cc1	-5.9	.	7.1	-0.4	-37.9
COc1cc(/C=N/Nc2cc(C)nc(NS(=O)(=O)c3ccc(C)cc3)n2)ccc1O	-1.3	-10.9%	.	-6.2	-31.8
Cc1nc2c(C)cccc2c(SC(=N)N)c1CC=C(Cl)Cl	.	-9.3%	-3.9	0.5	.
Cc1cc(N2C3CCC2CC(O)(c2ccc(F)cc2)C3)nc(-c2ccccc2)n1 (stereo unspecified)	-21.9	31.6µM*	63.8	4.1	-44.4
O=C(CN1C(=O)NC2(CCCCC2)C1=O)Nc1ccccc1Cl	9.1	1.1%	1.5	-0.3	-31.7
COc1ccc(C(CNCC(O)COc2c(C)ccc(C)c2C)N(C)C)cc1 (stereo unspecified)	.	.	8.2	-0.1	.
CC(=O)c1cc2c(cc1N)OCO2	-3.7	1.2%	2.3	-0.2	-49.4
CNC(=O)c1c[nH]c2ccc(S(=O)(=O)Nc3cccc(SC)c3)cc2c1=O	.	.	3.1	1.5	.
COc1cccc(C2C3=C(N=c4s/c(=C\c5cccc(O)c5)c(=O)n42)c2ccccc2CC3)c1OC (stereo unspecified)	-27.0	8.79µM*	94.6	3.2	-11.1
N=c1n(CCN2CCOCC2)c2ccccc2n1Cc1ccccc1Br	-14.7	-2.7%	3.7	1.7	-48.7
COc1cc2[nH]c(C(=O)N3CCc4ccccc4C3)cc2c(OC)c1OC	.	.	7.4	2.2	.
CC1Cc2ccccc2N1S(=O)(=O)c1ccc(Cl)nc1 (stereo unspecified)	.	-1.1%	-7.1	-1.6	.
O=C(Nc1ncc([N+](=O)[O-])s1)c1cccc([N+](=O)[O-])c1	.	.	43.6	23.4	.
Cc1nc(Nc2nc(CSc3ccc(Cl)cc3)cc(=O)[nH]2)nc2ccccc12	-8.8	-11.1%	2.0	4.5	-35.0
CC(C)Nc1nc(Cl)nc(Nc2ccccc2)n1	.	.	7.6	2.4	.
Cc1ccc(C(=O)NCC(=O)Nc2ccncc2)cc1C	.	.	?	2.4	.
CCOc1ccc(N2C(=O)CC(Sc3nnnn3-c3ccccc3)C2=O)cc1 (stereo unspecified)	-3.2	?	.	1.7	.
CCO/N=C(/C)c1c(O)cc(C(C)(C)C)n(-c2ccccc2)c1=O	-3.0	2.2%	-3.6	2.9	-14.5
CCCCCn1c(=O)[nH]c2c(c1=O)CCC2	7.9	-5.8%	-4.5	2.4	-43.2	Arbovirus anti repeat=3.6
COc1cc(C(=O)OCC(=O)Nc2ccc(N3CCOCC3)cc2)ccc1OCC(C)C	.	.	4.9	-0.8	.
COC(=O)c1cc(COc2ccc3c(c2)oc(=O)c2ccccc23)c(C)o1	-10.9	3.5%	-3.0	-2.5	-6.9
O=C(Nc1cccc(NC(=O)C2CCCO2)c1)c1ccco1 (stereo unspecified)	4.1	-4.0%	-3.3	3.3	.
COc1cc(NC(=O)C2Cc3ccccc3CN2S(C)(=O)=O)cc(OC)c1 (stereo unspecified)	.	.	4.5	-6.0	.
O=C(COc1ccccc1Cl)NC(=S)Nc1cccc(NC(=O)c2ccccc2Cl)c1	-4.0	-11.5%	-0.3	-1.0	-19.6

Grouped by structure: the compounds so far containing four or more nitrogen atoms.
SMILES	Arbovirus anti	Mtb growth	Mtb bLac sens	RecA splice inh	YopH inh	others
COc1cc(/C=N/Nc2cc(C)nc(NS(=O)(=O)c3ccc(C)cc3)n2)ccc1O	-1.3	-10.9%	.	-6.2	-31.8
N=c1n(CCN2CCOCC2)c2ccccc2n1Cc1ccccc1Br	-14.7	-2.7%	3.7	1.7	-48.7
O=C(Nc1ncc([N+](=O)[O-])s1)c1cccc([N+](=O)[O-])c1	.	.	43.6	23.4	.
Cc1nc(Nc2nc(CSc3ccc(Cl)cc3)cc(=O)[nH]2)nc2ccccc12	-8.8	-11.1%	2.0	4.5	-35.0
CC(C)Nc1nc(Cl)nc(Nc2ccccc2)n1	.	.	7.6	2.4	.
CCOc1ccc(N2C(=O)CC(Sc3nnnn3-c3ccccc3)C2=O)cc1 (stereo unspecified)	-3.2	?	.	1.7	.

Additional records.
SMILES	Arbovirus anti	Mtb growth	Mtb bLac sens	RecA splice inh	YopH inh	others
CCOCCn1c(-c2ccc(OC)cc2)nc2ccccc21	3.4	0.6%	0.5	2.4	-2.7	Arbovirus anti repeat=1.0
O=C(CSc1cccc2cccnc12)NCc1ccco1	0.6	.	-11.0	-0.4	-1.8
C[C@H]1CC[C@]2(O[C@H](CCO)C[C@H](O)[C@H]2O)O1	.	7.7%	-3.8	1.0	.
Cc1noc(C)c1S(=O)(=O)N1CCC(C(N)=O)CC1	.	.	-18.1	-1.1	.
CCN(CC(=O)Nc1c(F)cccc1F)C(=O)CSc1nc(C)cc(C)n1	.	.	-2.0	-1.9	.
O=C(NCc1ccco1)C(=O)NCC1OCCN1S(=O)(=O)c1cc(F)ccc1F (stereo unspecified)	.	3.1%	-5.2	-1.7	.
O=C(NC1=NCCS1)c1cccc(Br)c1	.	.	0.6	1.8	.
Cc1ccc(/C=C/C(=O)OCc2nc(N)nc(Nc3ccccc3C)n2)o1	1.2	-7.8%	-7.0	-0.6	.
CCOc1ccc2[nH]c(C)c(CN3CCN(C)CC3)c(=O)c2c1	11.3	-7.4%	-8.4	5.9	-5.9
O=C(Nc1nc2c(Cl)ccc(Cl)c2s1)C1CC1	.	.	1.8	-6.0	.
COc1ccc(C2C(C(=O)c3sc(C)nc3C)=C(O)C(=O)N2CCCn2ccnc2)cc1OC (stereo unspecified)	9.3	-3.4%	10.0	.	-21.5
CC(Cl)C(=O)NNc1cccc(Cl)n1 (stereo unspecified)	7.9	-13.5%	0.2	-5.3	-28.5

Sorted by heavy-atom count (rising): some entries from above.
SMILES	Arbovirus anti	Mtb growth	Mtb bLac sens	RecA splice inh	YopH inh	others
CC(Cl)C(=O)NNc1cccc(Cl)n1 (stereo unspecified)	7.9	-13.5%	0.2	-5.3	-28.5
C[C@H]1CC[C@]2(O[C@H](CCO)C[C@H](O)[C@H]2O)O1	.	7.7%	-3.8	1.0	.
O=C(Nc1nc2c(Cl)ccc(Cl)c2s1)C1CC1	.	.	1.8	-6.0	.

New compounds follow:
SMILES	Arbovirus anti	Mtb growth	Mtb bLac sens	RecA splice inh	YopH inh	others
CC(NC(=O)c1sc2cc([N+](=O)[O-])ccc2c1Cl)C(C)(C)C (stereo unspecified)	5.3	-1.3%	91.9	1.0	-2.6
COc1ccc(C(=O)CN2CCN(S(=O)(=O)c3cccc([N+](=O)[O-])c3)CC2)cc1	0.6	-3.6%	4.2	.	-10.1
CC(C)(C)C(=O)NC1CCN(C(=O)N2CCCC2)CC1	6.7	-2.9%	-3.7	-3.8	45.9
COC(=O)c1ccccc1-n1c(C)nc2ccccc2c1=O	1.0	1.4%	0.5	.	-24.8
Cc1ccccc1C(=O)NC1CCN(C(=O)N(c2ccccc2)c2ccccc2)CC1	8.6	-8.4%	-4.3	0.5	-58.4
COCCSc1ccccc1C(=O)N1CCN(Cc2ccc3c(c2)OCO3)CC1	2.9	-8.0%	0.7	1.7	1.3
CC(CNS(=O)(=O)c1ccc2c(c1)NC(=O)CCS2)c1ccccc1 (stereo unspecified)	.	.	5.8	3.3	.
Fc1ccc(-[n+]2nc(Nc3ccccc3)sc2-c2cccc(Cl)c2Cl)cc1	.	.	0.2	4.8	.
CC(=O)c1c(COC(=O)c2ccc(C)cc2)nc2ccccc2[n+]1[O-]	.	-1.7%	1.0	0.0	.
CCOC(=O)c1sc(=NC(=O)c2cccc(C)c2)n(C)c1C	-10.1	-10.3%	8.1	0.0	.
CCN(CC)S(=O)(=O)c1ccc(N=NC2=C(O)CC(C)(C)CC2=O)cc1	-4.9	-4.2%	5.4	-0.5	-41.7
Cc1cccc(NC(=O)c2c([N+](=O)[O-])cnn2C)c1	.	.	-6.0	0.7	.
Cc1cc(=O)oc2c(CN3CCCC3)c(O)c(Cl)cc12	.	.	?	-106.5	.
CCCCNC(=O)c1ccc(CNS(=O)(=O)c2ccc(Br)cc2)cc1	1.1	1.8%	9.9	-5.4	.
COc1ccc(C(=O)NNC(=O)C(=O)Nc2cccc3ccccc23)cc1	.	.	95.8	2.5	.
O=C(Cc1ccc(F)cc1)Nc1nccs1	.	.	-0.5	0.5	.
O=C(NS(=O)(=O)Nc1ccc(Cl)cc1)c1c[nH]c2ccccc12	.	.	8.2	-1.4	.
Cc1ccccc1N=C1NN=C(c2ccccc2F)CS1	-13.2	-2.6%	-12.6	9.0	-3.9
C1CCN(c2c3c(nc4nnnn24)CCCC3)CC1	-2.0	-6.1%	-1.5	-0.6	-104.0
CCCCOC(=O)CNc1nnc(SCC(=O)OCC)[nH]c1=O	11.0	-6.7%	7.9	77.5*	-11.9
COc1ccc(OCC(=O)N/N=C/c2ccc(OC)c(OC)c2C(=O)O)cc1	3.8	-8.4%	-0.7	-0.6	-30.3
CC(Sc1nc2ccccc2c(=O)n1CC1CCCO1)C(=O)NC(C)c1ccccc1 (stereo unspecified)	.	.	-6.3	0.2	.
c1coc(CSc2ncnc3c2oc2ccccc23)c1	.	11.4%	0.5	1.6	.
CCn1c(CN2CCCCCC2=O)nnc1SCc1cnc(-c2ccccc2)s1	-2.8	5.7%	77.3	8.6	-16.4
COc1ccccc1OCC(=O)OCC(=O)Nc1ncc(Cl)cc1Cl	3.2	-9.3%	-4.0	0.4	-36.5
Cc1ccc(S(=O)(=O)NNC(=O)c2cc([N+](=O)[O-])c(C)c([N+](=O)[O-])c2)cc1	.	.	99.8	4.7	.
Cc1ccc(/C=N/NC(=O)c2cc(-c3ccc(C)o3)[nH]n2)cc1	.	.	0.1	1.0	.
Cc1[nH]nc2c1C1(CCC3(CC1)OCCO3)C(C#N)=C(N)O2	-8.9	0.4%	-1.5	74.3*	-10.8
O=C(COC(=O)CCSc1ccccc1Cl)Nc1ccc(F)cc1F	-5.7	1.6%	-4.2	2.8	-41.2
Cc1cc(C)c(C)c(S(=O)(=O)N2CCN(CC(=O)c3c(N)n(Cc4ccccc4)c(=O)n(C)c3=O)CC2)c1C	-27.0	53.3%	0.8	4.6	1.0
Cc1ccccc1OCC(=O)NC(=S)Nc1ccc(N2CCOCC2)c(Cl)c1	7.3	4.5%	-3.5	-1.0	-35.0
COc1ccccc1OCc1ccc(C(=O)NN)cc1	-3.6	-4.8%	37.2	3.1	-15.7
CCC1CCCCN1C(=O)Cn1c(=O)n(CCC(=O)NCc2ccco2)c(=O)c2sccc21 (stereo unspecified)	-3.5	-10.7%	.	-0.8	-1.3
O=C(COc1ccc(F)cc1Cl)Nc1nc(-c2ccccn2)cs1	.	.	90.2	0.5	.
CCCCCCCNC(=O)C1(CC2CC(c3ccc(Cl)cc3)=NO2)CCN(C(=O)c2ccccc2)CC1 (stereo unspecified)	.	.	-1.3	1.2	.
COCCNC(=O)c1ccc2c(=O)n(CCCN3CCCC3=O)c(=S)[nH]c2c1	2.3	-2.9%	-3.0	0.9	.

Compounds from the list above that have a thiophene ring, fused or not:
SMILES	Arbovirus anti	Mtb growth	Mtb bLac sens	RecA splice inh	YopH inh	others
CC(NC(=O)c1sc2cc([N+](=O)[O-])ccc2c1Cl)C(C)(C)C (stereo unspecified)	5.3	-1.3%	91.9	1.0	-2.6
CCC1CCCCN1C(=O)Cn1c(=O)n(CCC(=O)NCc2ccco2)c(=O)c2sccc21 (stereo unspecified)	-3.5	-10.7%	.	-0.8	-1.3

Remaining list, next part.
SMILES	Arbovirus anti	Mtb growth	Mtb bLac sens	RecA splice inh	YopH inh	others
CCN(CC)CCCNC(=O)c1nn(-c2ccc(OC)cc2OC)c(=O)c2ccccc12	0.6	1.9%	-2.1	1.7	-32.2
COc1ccc(C#Cc2c(-c3ccc(OC)cc3)oc3ccc(-c4ccc(OC)cc4)cc23)cc1	.	7.1%	-2.2	-2.3	.
CC(C)C[C@H](NC(=O)c1[nH]cnc1C(=O)N[C@H](C)c1ccccc1)C(=O)OCc1ccccc1	3.1	-2.3%	-5.1	8.0	.
CC(C)(C)n1ncc2c(=O)n(CC(=O)NCCc3ccccc3)cnc21	-0.5	-4.9%	-7.5	-0.2	-23.8
Nc1[nH]ncc1-c1ccccc1	-0.3	48.5%	4.4	3.1	.
Cc1cnc(C(=O)OCC(=O)Nc2cc(Cl)cc(Cl)c2)cn1	1.9	-2.0%	6.3	3.1	-15.5	Arbovirus anti repeat=-1.5

A stretch taken from the entries so far:
SMILES	Arbovirus anti	Mtb growth	Mtb bLac sens	RecA splice inh	YopH inh	others
CC(C)C[C@H](NC(=O)c1[nH]cnc1C(=O)N[C@H](C)c1ccccc1)C(=O)OCc1ccccc1	3.1	-2.3%	-5.1	8.0	.
CC(C)(C)n1ncc2c(=O)n(CC(=O)NCCc3ccccc3)cnc21	-0.5	-4.9%	-7.5	-0.2	-23.8
